High-throughput results: PubChem, National Center for Advancing Translational Sciences (NCATS)
TRPML1 blocker: blocks the human TRPML1 channel; Q9GZU1; TRPML1-inducible cells, Ca2+ dye fluorescence, FDSS; hits give low values; inhibition of EC80 agonist-evoked calcium signal; activity change, negative = inhibition, % (concentration not given with the values); 390,000 compounds, 0.02% hits; in the data active means activity change below about -50%; inconclusive means about -30% to -50%; inactive means above about -30%;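 also: stimulus is agonist 54-4 at its EC80 concentration; % is scaled to controls: 0 for no effect and ±100 for the full control effect; the text of the record puts the active cut at -80%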
Target sequence (Q9GZU1 whole entry, looked up): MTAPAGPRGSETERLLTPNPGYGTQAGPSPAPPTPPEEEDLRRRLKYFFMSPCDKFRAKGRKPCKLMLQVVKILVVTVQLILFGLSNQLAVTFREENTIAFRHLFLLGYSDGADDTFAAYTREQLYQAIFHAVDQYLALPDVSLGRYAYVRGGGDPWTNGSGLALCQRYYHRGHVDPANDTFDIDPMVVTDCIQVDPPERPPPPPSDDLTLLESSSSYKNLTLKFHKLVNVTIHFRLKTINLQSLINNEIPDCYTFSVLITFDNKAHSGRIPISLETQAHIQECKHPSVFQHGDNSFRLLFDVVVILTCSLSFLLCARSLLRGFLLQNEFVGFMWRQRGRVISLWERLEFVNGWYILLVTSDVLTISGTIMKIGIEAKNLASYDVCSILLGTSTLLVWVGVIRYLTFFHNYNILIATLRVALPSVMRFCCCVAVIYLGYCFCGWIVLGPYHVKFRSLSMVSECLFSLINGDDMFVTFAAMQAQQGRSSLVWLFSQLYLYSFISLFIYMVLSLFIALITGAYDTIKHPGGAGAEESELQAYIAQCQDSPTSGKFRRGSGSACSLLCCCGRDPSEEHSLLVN
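Calcium fluorescence in TRPML1-DL cells induced overnight with Tet: a 110 s read after compound pin addition, then a 110 s antagonist read after challenge with 54-4 at 4 uM final (EC80).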
gsp agonist: agonists of gsp mutant (McCune-Albright syndrome); gsp mutant cells, cAMP HTRF, 30 min; control for the full effect not named in the record; Potency, µM (titrated, usually from 76.9 µM), for inactives: at the highest dose activation (cAMP increase), actives largely listed as activators; 340,000 compounds, 0.13% hits; active = well fitted activation curve with a large enough effect; inconclusive = small, poorly fitted or top-dose-only effect, or another doubt; inactive = no such curve, though single readings can be large or run the other way; cell line not stated here;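 also: phosphodiesterase inhibitor Ro 20-1724 added with compounds to block cAMP breakdown; potency is read from the fitted curve at half-maximal effect; nearly all actives have a fitted effect of over 60% in size; about a fifth of the inactives were tested at one dose only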
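Cells stably selected in G418 were plated at 2000/well, grown 16-24 hr, then given compounds in DMSO with the PDE inhibitor […] (300 uM solution added) for 30 min at 37C; cAMP was read by HTRF.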
gsp antag: gsp mutant antagonism; gsp-mutant cells, cAMP HTRF, 30 min; control for the full effect not named in the record; Potency, µM (doses to about 76.9 µM), for the others: at the highest dose activity change, negative = inhibition, usual class: inhibitors; 340,000 compounds, 0.4% hits; active = falling curve of any shape with a large fitted effect; inconclusive = falling curve, mostly with a smaller effect; inactive = flat or rising curve; cell line not stated here;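 also: intracellular cAMP measured with PDE inhibitor Ro 20-1724 present during compound exposure; potency is read from the fitted curve at half-maximal effect; % is scaled to controls: 0 for no effect and ±100 for the full control effect; nearly all actives have a fitted effect of over 65% in size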
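Measurement of cellular cAMP by homogeneous time-resolved fluorescence following a 30 min compound exposure at 37C. The PDE inhibitor […] was present throughout; the assay buffer was DPBS with 0.05% BSA and 0.005% Tween 20.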
Menin MLL FP FL: displaces fluorescein MLL peptide from human menin | 290,000 tested, under 10 active | FP activity change, % at 61.4 µM | Fluorescence polarization, fluorescein-MLL peptide displacement from menin; inconclusive = falling polarisation curve, or a change in total fluorescence; inactive = total fluorescence flat and polarisation flat or rising; no compound was filed as active; the % refers to the polarisation; negative = inhibition;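 also: % of control where 0% means no effect; inhibitors lower the polarisation; unlabelled MLL peptide was the positive control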
Sfp inh: Sfp phosphopantetheinyl transferase inhibition. Q9F4F7. Biochemical Sfp PPTase activity, qHTS. Potency, µM, without a hit: max response, negative = inhibition, usual class: inhibitors. 310,000 compounds, 3.5% hits. AID 1490; active = well fitted inhibition curve with a large enough effect; inconclusive = small, poorly fitted or top-dose-only effect, or another doubt; inactive = no such curve, though single readings can be large or run the other way;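 also: the enzyme is Sfp with the accession as filed and its product quenches rhodamine fluorescence; potency is read from the fitted curve at half-maximal effect; 0% = enzyme reaction without inhibitor and -100% = no enzyme wells; top concentration of the series not given in the record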
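Compounds were incubated with enzyme (final 15 nM) for 15 min at room temperature before substrate addition started the reaction. Fluorescence at 525 nm excitation, 598 nm emission was recorded immediately and after 30 minutes.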
TRPV1 PAM: human TRPV1 potentiation | TRPV1-expressing cells, Fluo-8 calcium influx, capsaicin EC20 potentiation; host cell line not named in the record; control for the full effect not named in the record | potentiation, % at 8.33 µM | 320,000 compounds, 0.02% hits | AID 540277; active means potentiation above 80%; inconclusive means 30% to 80%; inactive means below 30%; also: 0% is about no effect
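Fluo-8 calcium influx in TRPV1-expressing cells, kinetic read (ex 480/em 520 nm). Compound added and read 3 min for agonist activity, followed by capsaicin at EC20 final and 2 min further read for enhancement.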
ClpP mod: qHTS Assay for Activators of ClpP; ATP-dependent Clp protease proteolytic subunit (Bacillus subtilis (strain 168)), P80244; purified B. subtilis ClpP, FRET peptide cleavage, 20 min; Potency, µM (series often up to 57.5 µM), without a hit: at the highest dose activity change, negative = active; 340,000 compounds, 1.9% hits; AID 651965, 2013; active = well fitted falling curve with a large enough effect; inconclusive = small, poorly fitted or top-dose-only effect; inactive = no such curve, though single readings can be large or run the other way; also: potency is read from the fitted curve at half-maximal effect; the source files actives as falling curves though it sought activators and does not explain the sign; nearly all actives have a fitted effect of over 65% in size; many hits overshoot -100%
Target sequence (P80244 whole entry, looked up): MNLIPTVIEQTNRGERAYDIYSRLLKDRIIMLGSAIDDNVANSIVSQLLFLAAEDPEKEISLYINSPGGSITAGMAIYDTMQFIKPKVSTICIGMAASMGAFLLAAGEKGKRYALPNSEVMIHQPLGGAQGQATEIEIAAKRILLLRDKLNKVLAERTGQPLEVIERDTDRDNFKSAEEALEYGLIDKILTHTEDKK
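FRET quenching reversal measured ClpP activation: 10 microg/mL B. subtilis ClpP at pH 8 with the FRET-FV decapeptide, read at 430 nm after 320 nm excitation. The 20-min minus 0-min signal was scaled between DMSO/no-enzyme wells and ADEP (5.8 microM final).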
Numbers without * were called inactive; u = inconclusive; x = no result given; & = joins results of further samples; [ ] = another dose, or the depositor's remark. This is a random part of the collection. About 4.9% of those tested had a hit in this group.

cpd | SMILES | TRPML1 blocker | gsp agonist | gsp antag | Menin MLL FP FL | Sfp inh | TRPV1 PAM | ClpP mod
1 | COC(=O)CSc1n[nH]c(-c2cccnc2)n1 | 8 | 9% | 0% | 3.2 | 14% | 2 | 0.5%
2 | Cc1cccc(NC(=O)C[n+]2ccc(N(C)C)cc2)c1 | -2 | -1% | 8% | -0.8 | 4% | -8 | -1.6%
3 | CS(=O)(=O)N1CCN(c2cccc(Cl)n2)CC1 | 0 | 10% | 13% | 1.5 | 11% | 4 | -3.6%
4 | CCOc1ccc(CCNC(=O)COn2nnc3ccc(S(=O)(=O)N4CCOCC4)cc32)cc1OCC | 11 | -30%[15.4 µM] | -12% | x | x | 0 | x
5 | Cc1ccc2[nH]c3nc(NN)nnc3c2c1 | -8 | 1%[15.4 µM] | -8% | -7.5 | 9% | -3 | 28µM*
6 | O=C(CN1C(=O)CCSc2ccc(S(=O)(=O)N3CCCC3)cc21)Nc1ccccc1 | -4&5 | u | 9% | -2.0 | 15% | -1 | -0.7%&-1.1%
7 | CN1C[C@@H]2[C@@H]3C(=O)N(C)C(=O)[C@@H]3[C@](Cc3ccccc3)(C1=O)N2C(=O)c1ccccc1 | -12 | -15% | 12% | x | x | x | 0.0%
8 | O=C(COC(=O)c1ccc(O)cc1)Nc1ccccc1 | -9 | 1% | -3% | -0.1 | 8% | -5 | x
9 | CN1CCCCCC1=Nc1ccc([N+](=O)[O-])cc1 | 25 | 8%[15.4 µM] | 8% | x | x | x | 11µM*
10 | CCCN(CCC)CCCNC(=O)c1ccc(CS(=O)(=O)c2c(Cl)cccc2Cl)o1 | -10 | -1% | 5% | -5.5 | 4% | -13 | 0.2%
11 | CC(Sc1nnc(-c2cccnc2)n1N)C(=O)N1CCOCC1 (centres undefined) | -17 | -3% | 7% | x | x | -1 | -3.3%
12 | Cc1ccc(C(=O)O/N=C/c2c(C)nn(C)c2Cl)cc1 | 13 | -46%[inhibitor] | 4% | 1.1 | 10% | -5 | x
13 | O=C(N/N=C\C=C\c1ccco1)c1cc(-c2ccc3ccccc3c2)n[nH]1 | 7 | 4% | u | 8.1 | 2% | 9 | -0.6%
14 | O=C1NCC(Nc2ccccc2Cl)C(=O)N1 (centres undefined) | -13 | -26% | 7% | x | x | x | x
15 | COc1ccc(/C=C2/SC(=O)NC2=O)cc1 | 7 | 22% | -24% | -2.7 | 3% | -1 | -0.3%
16 | O=C(CCN1C(=O)C2C3C=CC(C3)C2C1=O)NC1CCCc2ccccc21 (centres undefined) | -3 | 24% | 13% | -0.9 | 16% | 4 | 0.4%
17 | CC(=O)Nc1ccc2c(c1)CCC2=O | -12 | 10% | -2% | -1.6 | 12% | 6 | -1.8%
18 | O=S1(=O)CCOC[C@H](c2ccccc2)N1Cc1ccccc1 | -1 | 9% | 8% | -4.7 | 11% | 9 | -3.3%&1.1%
19 | CC(C)c1cc(C(F)(F)F)nc(NNc2nc(C(C)C)cc(C(F)(F)F)n2)n1 | -14 | -10% | x | x | x | x | 2.6%
20 | CC1CCCN(c2ccc(C(=O)NCc3cccs3)cn2)C1 (centres undefined) | -2 | 1% | -5% | 3.9 | -4% | -23 | -5.3%
21 | COc1ccc(NC(=O)c2ccc(-c3ccc(-c4noc(C)n4)cc3C)cc2)cc1N1CCN(C)CC1 | 4 | x | -4% | u | 32µM* | 7 | -0.9%&-9.5%
22 | CC1(C)CC(=O)C2=C(C1)OC(c1ccncc1)C(C#N)=C2N (centres undefined) | 19 | 3% | 11% | -0.3 | 16% | 5 | -0.1%
23 | CCN(CC)C(=O)CSc1nnc(CCCCCNC(=O)OC(C)(C)C)o1 | 17 | -47%[inhibitor] | -9% | 2.0 | 1% | -2 | -0.8%
24 | O=S1(=O)CCC(NC(=S)SCc2ccccc2Br)C1 (centres undefined) | 14 | -25% | 3% | -4.0 | 12% | -1 | x
25 | Cc1cc(Cl)ccc1NC(=S)NCCc1ccc(Cl)cc1 | -20 | -88%[inhibitor] | -17% | 3.0 | 3% | -12 | x
26 | CC(Cc1cccs1)NC(=O)Nc1ccc([N+](=O)[O-])cc1 (centres undefined) | -2 | -45%[inhibitor] | -6% | -3.3 | 6% | -16 | -0.8%
27 | C#CCOCCOCCOCCNc1nc(N2CCN(C(=O)[C@H]([C@@H](C)CC)n3cc([C@@H](N)CC(C)C)nn3)CC2)nc(N2CCN(C(=O)[C@H](CCCCN)n3cc([C@@H](N)CC(C)C)nn3)CC2)n1 | -21 | x | 5% | -3.0 | 2% | 20 | -1.0%
28 | CCc1ccccc1NC(=O)CN1CCN(C(=O)CNC(=O)c2ccc(-c3ccccc3)cc2)CC1 | -5 | -33%[inhibitor] | -29% | x | x | 0 | -3.0%
29 | CC(=O)Nc1ccc(S(=O)(=O)N(Cc2cccnc2)Cc2cc3ccc(C)cc3[nH]c2=O)cc1 | 3 | 20% | -2% | x | 19% | -16 | -12%
30 | CCc1nnc(NC(=O)COc2ccc3ccccc3c2)s1 | 32 | -27% | -3% | -2.2 | 1% | 24 | x
31 | COCCN(C(=O)c1cc2c(s1)CCC2)c1c(N)n(CC(C)C)c(=O)[nH]c1=O | -6 | -24% | 7% | x | x | -6 | 1.0%
32 | Cc1cc(=O)oc2cc(OCC(=O)NCC3CCCO3)ccc12 (centres undefined) | 13 | -3% | 0% | -1.6 | 26% | 3 | 3.8%
33 | COc1cc(CN2CCNC(=O)C2CC(=O)NC2CCC2)cc(OC)c1 (centres undefined) | -17 | 15% | -7% | x | 6% | 13 | -7.1%
34 | CCOC(=O)c1c(NC(=O)C2COc3ccccc3O2)sc(C(C)=O)c1C (centres undefined) | -10 | 21% | -23% | 2.1 | 5% | 9 | -5.1%
35 | Cc1cc(N)n2ncc(-c3cccc(Br)c3)c2n1 | -5 | 3% | -8% | 2.2 | 5% | 13 | 18µM*
36 | Cc1ccc(CSCCNC(=O)c2ccc(NS(C)(=O)=O)cc2)cc1 | -4 | 27% | 8% | 1.4 | 2% | -3 | x
37 | Clc1ccc(CNCCCSc2ncccn2)cc1 | 10 | -7% | 14% | -6.2 | -2% | 2 | x
38 | O=C(NCc1ccccc1)c1ccc2c(c1)S(=O)(=O)c1cc(Cl)ccc1C2=O | 14 | x | -24% | x | x | -7 | -2.4%
39 | O=C(Nc1ccccc1F)c1ccc(Cn2cc(Br)cn2)cc1 | -4 | -6% | -4% | 4.3 | 7% | -18 | 0.7%
40 | CCOc1ccc(N2C(=O)S/C(=C\c3cccn3C)C2=O)cc1 | 26 | 22% | -31% | -0.8 | -8% | 8 | 0.8%
41 | O=[N+]([O-])c1ccccc1S(=O)(=O)N1CCN(Cc2ccc3c(c2)OCO3)CC1 | 33 | 12%[15.4 µM] | 3% | 1.9 | -20% | 5 | x
42 | CCN1CCN(C(=S)Nc2ccc3nc(N4CCN(C)CC4)cc(C)c3c2)CC1 | 2 | -18% | 0% | 0.3 | -3% | u | -17%
43 | CCOC(=O)c1sc(NC(=O)CSc2nc3c(c(=O)n2-c2ccc(F)cc2)SCC3)c(C(=O)OCC)c1C | x | x | x | 2.5 | 5% | -7 | x
44 | COc1ccccc1CNC(=O)C1CCC(CNc2c(N3CCC(C)CC3)c(=O)c2=O)CC1 (centres undefined) | 3 | 3% | -5% | 2.7 | 22% | -15 | -0.5%
45 | O=C(NNC(=O)C12CC3CC(CC(C3)C1)C2)c1ccccn1 | -4 | 19%[15.4 µM] | -2% | -0.2 | 12% | -3 | -1.7%
46 | CCOC(CNC(=O)c1ccc(N2CCc3ccccc32)c([N+](=O)[O-])c1)OCC | 13 | -31%[inhibitor] | u | 0.0 | 3% | 16 | -1.6%
47 | COC(=O)c1ccccc1NC(=O)CN(Cc1ccc(Cl)cc1)S(C)(=O)=O | -4 | -3% | -12% | 1.3 | 20% | -25 | -24%
48 | COc1ccccc1-n1cc(CN2CCN(C3CCCCC3)C(CCO)C2)cn1 (centres undefined) | 27 | -10%[15.4 µM] | 16% | -5.9 | 12% | 1 | x
49 | CC(C)[C@H](NC(=O)c1ccccc1Cl)C(=O)OCc1cc(=O)n2cc(Br)ccc2n1 | -11 | 30%[15.4 µM] | 5% | -0.6 | 13% | -13 | x
50 | COc1ccc(-n2c(SC3CCOC3=O)nc3ccccc32)cc1 (centres undefined) | 10 | -12% | -18% | 1.5 | 10% | 5 | 1.9%
51 | Cc1ccc(-n2ncc3c(N4CCCC4)ncnc32)c(C)c1 | -4 | -15% | 4% | -2.6 | u | -12 | 1.4%
52 | Cc1cc(C(=O)N/N=C/c2cc(Cl)cc([N+](=O)[O-])c2O)c2ccccc2n1 | -4 | -27% | -13% | 10 | 1% | u | 0.9%
53 | CCSc1nnc(NC(=O)C(CC)Oc2ccccc2)s1 (centres undefined) | 12 | -26% | -3% | 7.8 | -13% | u | 0.4%
54 | COc1ccc(-c2noc(-c3ccccc3-c3ccccc3)n2)cc1OC | -13 | -9%[15.4 µM] | 13% | -0.5 | u | 9 | 0.8%
55 | COc1ccc(-c2nnc(SCCC(=O)O)n2-c2ccccc2)cc1 | -10 | u | -7% | -0.8 | 23% | 3 | -4.1%
56 | Cc1ccc2nc(C)cc(Cl)c2c1 | -3 | -70%[inhibitor] | 7% | -5.2 | -1% | -3 | 0.2%
57 | CCC(c1nnnn1CCOC)N1CCN(C(=O)c2ccco2)CC1 (centres undefined) | -11 | 1% | 3% | -6.9 | -56% | 1 | -4.3%
58 | COc1ccc(N2CCN(C(=O)CC3NC4CCCCC4NC3=O)CC2)cc1 (centres undefined) | -10 | 7% | 12% | 1.1 | 12% | 12 | -2.1%
59 | CC(C)OC(=O)N(C)C[C@@H]1OCc2cnnn2CCCC(=O)N([C@H](C)CO)C[C@@H]1C | 58 | 0% | x | x | x | x | 0.5%
60 | O=C(CSc1nc2ccccc2s1)Nc1ccc(Cl)c(S(=O)(=O)N2CCOCC2)c1 | -12 | 11% | -11% | 13 | 7% | 0 | -1.9%
